Rce1 inhib: yeast Ras-converting enzyme inhibition | Q03530 | yeast membranes, quenched prenylated peptide cleavage fluorescence | calls only | actives 0.27% (n = 290,000);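 active = fall in fluorescence gain of 50% or more versus controls, with final raw signal at or below 3038400; inconclusive = same 50% fall but final raw signal above 3038400; inactive = fall in fluorescence gain under 50%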;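 note: plate controls were neutral control wells for no effect and wells lacking membranes for full effect; tested at 10 µM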
Target sequence (Q03530 whole entry, looked up): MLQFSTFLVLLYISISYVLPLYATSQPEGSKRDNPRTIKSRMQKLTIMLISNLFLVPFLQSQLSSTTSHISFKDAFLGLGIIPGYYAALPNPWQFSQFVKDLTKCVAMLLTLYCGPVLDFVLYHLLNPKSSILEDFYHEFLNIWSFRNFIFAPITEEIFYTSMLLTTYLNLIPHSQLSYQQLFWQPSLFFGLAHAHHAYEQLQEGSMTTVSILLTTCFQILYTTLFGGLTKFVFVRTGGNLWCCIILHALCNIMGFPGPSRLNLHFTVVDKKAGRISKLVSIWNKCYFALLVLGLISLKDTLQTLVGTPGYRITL
Yeast UUG start: modulators of start codon recognition fidelity in yeast; activity score, % at 18.7 µM; actives 0.13% (n = 350,000); S. cerevisiae UUG-firefly luciferase reporter, luminescence/redox ratio;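 active = replicate mean at a twofold rise or more, about +100% in these data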;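 note: firefly luciferase made from a UUG start codon reports start codon fidelity; reporter light over untreated wells divided by growth signal over untreated wells; some hits fall short of that in this replicate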
PABP polyA inh: PABP-poly(A) binding inhibition; P11940; PABP-poly(A) RNA binding, fluorescence polarization; inhibition, % at 35 µM; actives 1% (n = 290,000); AID 2014;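 active = 50% or more with normal probe brightness, or confirmed in later tests; inconclusive = above 50% with abnormal brightness, or retests that disagree; inactive = below 50% or failed in later tests; about a fifth of its hits are not listed in these tables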;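 note: calls also rest on retests at 20 µM and on dose response follow-up; controls were probe without protein and protein plus probe with vehicle; some compounds called inactive have numbers as strong as hits; many hits fall short of the cut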
Target sequence (P11940 whole entry, looked up): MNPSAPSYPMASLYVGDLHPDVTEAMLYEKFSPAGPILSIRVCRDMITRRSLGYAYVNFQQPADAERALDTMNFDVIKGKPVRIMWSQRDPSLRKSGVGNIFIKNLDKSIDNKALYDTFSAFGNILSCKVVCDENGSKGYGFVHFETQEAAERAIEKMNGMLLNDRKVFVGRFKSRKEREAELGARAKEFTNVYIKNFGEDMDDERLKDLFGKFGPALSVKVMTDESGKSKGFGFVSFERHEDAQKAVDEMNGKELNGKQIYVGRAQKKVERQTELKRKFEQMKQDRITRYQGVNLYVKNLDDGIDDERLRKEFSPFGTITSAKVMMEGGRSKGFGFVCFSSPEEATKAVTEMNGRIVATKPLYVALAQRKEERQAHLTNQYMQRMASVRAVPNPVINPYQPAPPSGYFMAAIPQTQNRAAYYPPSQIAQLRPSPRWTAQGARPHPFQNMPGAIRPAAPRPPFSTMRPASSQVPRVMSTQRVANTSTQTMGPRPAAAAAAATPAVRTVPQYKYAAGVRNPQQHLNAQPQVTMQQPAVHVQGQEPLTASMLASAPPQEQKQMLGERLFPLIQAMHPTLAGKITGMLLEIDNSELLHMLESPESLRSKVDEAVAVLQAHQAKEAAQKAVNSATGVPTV
CSC inhib: cancer stem cell inhibition; cancer stem cell-like cells viability, luminescence; inhibition, % at 7.5 µM; actives 1.1% (n = 300,000);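 active = mean at 75% or more and at least half the replicates too; inconclusive = mean and replicates disagree; tested in HMLE shEcad cells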;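 note: 0% = median of negative and 100% = median of positive control wells; the first replicate is given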
HIV Env fusion: HIV envelope-mediated fusion inhibition; HeLa-JRFL Env/CEM21 cell fusion, luciferase; inhibition, % at 12.3 µM; actives 1.1% (n = 360,000);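 active = mean replicate inhibition score of at least 50 and every replicate individually at or above 50; inconclusive = only one of the two criteria met; inactive = mean below 50 and not all replicates reaching 50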;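 note: 0% = plate neutral controls and 100% = maraviroc near 300 nM; one replicate is shown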
eIF4H FP inh: inhibitors of RNA binding by human eIF4H; Q15056; eIF4H fluorescence polarization binding assay; inhibition, % at 35 µM; actives 0.94% (n = 290,000);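 active = 50% or more with normal probe brightness, or confirmed in later tests; inconclusive = above 50% with abnormal brightness, or retests that disagree; inactive = below 50% or failed in later tests; about a fifth of its hits are not listed in these tables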;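 note: calls also rest on retests at 20 µM and on dose response follow-up; 0% = protein and probe with vehicle and 100% = probe without protein; strong numbers were not always called active; many hits fall short of the cut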
MT1-MMP act inh: blocks activation of human MT1-MMP. P50281. HT1080 RFP-PRO-GFP cells, GFP/RFP ratio fluorescence, overnight; percent of plate control window, DMSO zero. GFP/RFP ratio change, % at 20 µM. actives 0.061% (n = 360,000);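 active = GFP/RFP ratio change of at least 30% with cell ATP level not reduced by more than half and red fluorescence within 50% of control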; note: strong numbers were not always called active
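Assay system: RFP-PRO-GFP reporter HT1080 cells; read-out basis: GFP/RFP fluorescence ratio; benchmarks: DMSO wells and RFP-L50D-GFP cells; doses: 20 µM single dose, 1% DMSO; schedule: overnight cell settling, then overnight compound exposure, 37 °C, 5% CO2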
eIF4H FP inh retest: also measured in eIF4H FP inh; calls as there; inhibition, %; compound at 20 µM; confirmation average;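 mean of two retest wells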
PABP polyA inh retest: further read-out of PABP polyA inh, marked with its call; inhibition, %; compound at 20 µM; confirmation repeats;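 mean of two retest wells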
MT1-MMP act inh RFP: second read-out of MT1-MMP act inh, no call of its own (marks repeat the call); RFP signal change, %; measured here: RFP expression control read;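 0 = vehicle wells; hits needed this value within 50% of zero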
An asterisk follows results filed as active.

For CCN(CC(=O)NC(C)C)Cc1nc2c(Br)cc(Br)cc2c(=O)[nH]1 the results were Rce1 inhib inactive, Yeast UUG start 0, PABP polyA inh -12, CSC inhib 25, HIV Env fusion 6, eIF4H FP inh -1, MT1-MMP act inh -9 and MT1-MMP act inh RFP -2.
CCCCCCCC1CC(CSc2ncn[nH]2)OC1=O (stereo unspecified) was read as Rce1 inhib inactive, Yeast UUG start -9, PABP polyA inh -10, CSC inhib 3, HIV Env fusion -360, eIF4H FP inh -5, MT1-MMP act inh 1 and MT1-MMP act inh RFP -3.
COc1ccc2c(c1)cc1c(=O)n(CC(=O)NCCCOC(C)C)nc(C)n12 was read as Rce1 inhib inactive, Yeast UUG start -13, PABP polyA inh -3, CSC inhib -1, HIV Env fusion -2, eIF4H FP inh -2, MT1-MMP act inh 2 and MT1-MMP act inh RFP 1.
For C=CCn1c(CCNC(=O)c2ccccc2F)nnc1SCC(=O)Nc1ccc(OC)cc1 the results were Rce1 inhib inactive, PABP polyA inh 2, CSC inhib -7, HIV Env fusion 4, eIF4H FP inh -4, MT1-MMP act inh 6 and MT1-MMP act inh RFP 4.
For CCC(C)(C)NC(=O)C(c1ccccc1F)N(C(=O)c1ccn[nH]1)c1ccccc1 (stereo unspecified) the results were Rce1 inhib inactive, Yeast UUG start 0, PABP polyA inh -9, CSC inhib 12, HIV Env fusion -8, eIF4H FP inh -13, MT1-MMP act inh -2 and MT1-MMP act inh RFP -6.
`CCC(CC)NC(=O)COC(=O)CCC(=O)c1ccc(Cl)cc1` gave Rce1 inhib inactive, PABP polyA inh -20, CSC inhib 14, HIV Env fusion 0, eIF4H FP inh -1, MT1-MMP act inh 2 and MT1-MMP act inh RFP 2.
O=C(CCl)Nc1ccccc1Sc1ccccc1 was read as Yeast UUG start 509*, PABP polyA inh 14, HIV Env fusion 21, eIF4H FP inh -5, MT1-MMP act inh -6 and MT1-MMP act inh RFP -10.
`O=C(CSc1nc2c(cnn2-c2ccccc2)c(=O)[nH]1)N1CCCCC1` gave Rce1 inhib inactive, PABP polyA inh -3, CSC inhib -10, HIV Env fusion -11, eIF4H FP inh -11, MT1-MMP act inh -3 and MT1-MMP act inh RFP 1.
Screening COc1ccc(NS(=O)(=O)c2cccc(C(=O)NN=C(C)c3ccco3)c2)cc1 returned Yeast UUG start -19, CSC inhib -7, MT1-MMP act inh 3 and MT1-MMP act inh RFP -1.
Screening CCOC(=O)N1CCN(C(=O)CN(c2ccc(Oc3ccccc3)cc2)S(C)(=O)=O)CC1 returned Rce1 inhib inactive, Yeast UUG start 3, PABP polyA inh -3, CSC inhib 18, HIV Env fusion -19, eIF4H FP inh 0, MT1-MMP act inh 2 and MT1-MMP act inh RFP -13.
`O=C(CNC(=O)/C(=C\c1ccc(F)cc1)NC(=O)c1ccccc1)OCc1ccccc1` gave Rce1 inhib inactive, Yeast UUG start 3, PABP polyA inh -6, CSC inhib -1, eIF4H FP inh 0, MT1-MMP act inh -2 and MT1-MMP act inh RFP -1.
For Cc1ccccc1OCC(=O)Nc1ccccc1C(=O)NC1CC1 the results were Rce1 inhib inactive, Yeast UUG start -12, CSC inhib 0, HIV Env fusion 7, MT1-MMP act inh -6 and MT1-MMP act inh RFP 0.
Screening COc1ccc(CCNC(=O)CSc2nnc(CNc3ccc(Cl)cc3)o2)cc1OC returned Rce1 inhib inactive, Yeast UUG start 0, PABP polyA inh -6, CSC inhib -1, HIV Env fusion 3, eIF4H FP inh -3, MT1-MMP act inh 8 and MT1-MMP act inh RFP 3.
Screening NC(=O)c1nnn(-c2ccccc2)c1N returned Rce1 inhib inactive, Yeast UUG start -11, PABP polyA inh 4, CSC inhib -5, HIV Env fusion 2, eIF4H FP inh 3, MT1-MMP act inh 4 and MT1-MMP act inh RFP 4.
For CC1(C)Oc2ccc(NC(=O)C3COc4ccccc4O3)cc2O1 (stereo unspecified) the results were Rce1 inhib inactive, Yeast UUG start -55, PABP polyA inh -6, CSC inhib -3, HIV Env fusion -439, eIF4H FP inh 7, MT1-MMP act inh -3 and MT1-MMP act inh RFP 0.
`CC(C)(C)c1ccc(S(=O)(=O)Nc2ccc(C(O)(C(F)(F)F)C(F)(F)F)cc2)cc1` gave Yeast UUG start 3, HIV Env fusion inconclusive, MT1-MMP act inh -6 and MT1-MMP act inh RFP -14.
`CN(C(=O)CSc1nnc(C(F)(F)F)n1N)C1CCS(=O)(=O)C1` (stereo unspecified) gave Rce1 inhib inactive, Yeast UUG start -22, PABP polyA inh 3, CSC inhib -15, HIV Env fusion -10, eIF4H FP inh 0, MT1-MMP act inh 2 and MT1-MMP act inh RFP 3.
Screening CC(OC(=O)C(C)Oc1ccccc1)C(=O)Nc1ccc(S(=O)(=O)N2CCCCC2)cc1 (stereo unspecified) returned Yeast UUG start 4, CSC inhib -11, MT1-MMP act inh 2 and MT1-MMP act inh RFP -1.
`O=C(C1CCCO1)N1CCN(C(c2ccccc2)c2ccccc2)CC1` (stereo unspecified) gave Rce1 inhib inactive, Yeast UUG start 13, PABP polyA inh 5, CSC inhib -11, eIF4H FP inh 8, MT1-MMP act inh -10 and MT1-MMP act inh RFP -2.
For CCOC(=O)C1(CCOc2ccccc2)CCN(Cc2cccc(F)c2)CC1 the results were Rce1 inhib inactive, Yeast UUG start -4, PABP polyA inh 7, CSC inhib 25, HIV Env fusion 14, eIF4H FP inh 0, MT1-MMP act inh 0 and MT1-MMP act inh RFP -4.
For COc1cccc(NC(=S)NCc2ccccc2)c1 the results were Rce1 inhib inactive, Yeast UUG start -14, PABP polyA inh -1, CSC inhib -14, HIV Env fusion -36, eIF4H FP inh 6, MT1-MMP act inh 0 and MT1-MMP act inh RFP 0.
Screening Cc1ccc(-c2nnn(CC(=O)Nc3nnc(C(C)C)s3)n2)cc1 returned Rce1 inhib inactive, PABP polyA inh 3, CSC inhib 10, HIV Env fusion 8, eIF4H FP inh -10, MT1-MMP act inh 4 and MT1-MMP act inh RFP 2.
`CCc1ccc(NC(=O)C(C)n2nc(C)c([N+](=O)[O-])c2C)cc1` (stereo unspecified) gave Rce1 inhib inactive, Yeast UUG start -11, PABP polyA inh -14, CSC inhib 14, HIV Env fusion -1, eIF4H FP inh -6, MT1-MMP act inh 3 and MT1-MMP act inh RFP 1.
COc1ccc(-c2nnc3c4ccccc4c(C)nn23)cc1 was read as Rce1 inhib inactive, Yeast UUG start 11, PABP polyA inh -6, CSC inhib -16, HIV Env fusion -276, eIF4H FP inh -8, MT1-MMP act inh 1 and MT1-MMP act inh RFP -2.

Looked up by structure from the list above:
`CC(C)(C)c1ccc(S(=O)(=O)Nc2ccc(C(O)(C(F)(F)F)C(F)(F)F)cc2)cc1` gave Yeast UUG start 3, HIV Env fusion inconclusive, MT1-MMP act inh -6 and MT1-MMP act inh RFP -14.
For CCOC(=O)C1(CCOc2ccccc2)CCN(Cc2cccc(F)c2)CC1 the results were Rce1 inhib inactive, Yeast UUG start -4, PABP polyA inh 7, CSC inhib 25, HIV Env fusion 14, eIF4H FP inh 0, MT1-MMP act inh 0 and MT1-MMP act inh RFP -4.

The results go on.
`Cn1nc(-c2ccccc2)c(-c2nc(-c3cccc(C(F)(F)F)c3)no2)c1Cl` gave Rce1 inhib inactive, Yeast UUG start -12, PABP polyA inh 5, CSC inhib 1, HIV Env fusion -25, eIF4H FP inh -8, MT1-MMP act inh -5 and MT1-MMP act inh RFP -5.
For O=C(N/N=C/c1ccco1)c1ccncc1 the results were Rce1 inhib inactive, PABP polyA inh 10, CSC inhib -24, HIV Env fusion -41, eIF4H FP inh -2, MT1-MMP act inh 1 and MT1-MMP act inh RFP -1.
`Cc1cnc(C(=O)Nc2nnc(C3CC3)s2)cn1` gave Rce1 inhib inactive, Yeast UUG start -16, PABP polyA inh 6, CSC inhib -4, HIV Env fusion -53, eIF4H FP inh 8, MT1-MMP act inh 9 and MT1-MMP act inh RFP 6.
Screening COc1ccc(OCC(O)CNC(=O)Nc2ccc(C(C)(C)C)cc2)cc1 (stereo unspecified) returned Rce1 inhib inactive, Yeast UUG start -18, PABP polyA inh 2, CSC inhib 12, HIV Env fusion 9, eIF4H FP inh -10, MT1-MMP act inh 2 and MT1-MMP act inh RFP -2.
N=c1sccn1CC(=O)Nc1cccc(Oc2ccccc2)c1 was read as Rce1 inhib inactive, Yeast UUG start 12, PABP polyA inh -7, CSC inhib -4, HIV Env fusion 1, eIF4H FP inh -11, MT1-MMP act inh -6 and MT1-MMP act inh RFP -3.
`Cc1cc(-c2ccc(C)c(S(=O)(=O)NCCc3ccc(S(N)(=O)=O)cc3)c2)on1` gave Rce1 inhib inactive, Yeast UUG start -17, PABP polyA inh -2, CSC inhib -2, HIV Env fusion -7, eIF4H FP inh -7, MT1-MMP act inh 1 and MT1-MMP act inh RFP -1.
`COc1ccc(/C=C/c2nc(N)nc(-c3ccccc3O)n2)cc1OC` gave Rce1 inhib inactive, PABP polyA inh 1, CSC inhib 42, HIV Env fusion 8, eIF4H FP inh -3, MT1-MMP act inh -5 and MT1-MMP act inh RFP -10.
For Cc1ccc2nc(-c3sc4nc(C)cc(C)c4c3N)[nH]c2c1 the results were Rce1 inhib inactive, Yeast UUG start -55, PABP polyA inh -6, CSC inhib -21, HIV Env fusion inactive, eIF4H FP inh -5, MT1-MMP act inh 3 and MT1-MMP act inh RFP -5.
O=C(CSc1ncnc2ccccc12)Nc1cccc(S(=O)(=O)N2CCOCC2)c1 was read as Rce1 inhib inactive, PABP polyA inh -16, CSC inhib 0, HIV Env fusion 20, eIF4H FP inh -5, MT1-MMP act inh -8 and MT1-MMP act inh RFP -2.
CN(CC(=O)Nc1ccc(Cl)c(C(F)(F)F)c1)C(=O)CCCNC(=O)c1ccc(Cl)cc1 was read as Yeast UUG start 2, CSC inhib 26, MT1-MMP act inh 2 and MT1-MMP act inh RFP -7.
CCc1cc(C(=O)c2ccccc2OC)c(N)s1 was read as Rce1 inhib inactive, Yeast UUG start -7, PABP polyA inh -2, CSC inhib 1, eIF4H FP inh -5, MT1-MMP act inh 7 and MT1-MMP act inh RFP -2.
For CC(Sc1nc(N)cc(N)n1)C(=O)NCCC1=CCCCC1 (stereo unspecified) the results were Yeast UUG start -12, CSC inhib -16, HIV Env fusion -49, MT1-MMP act inh -2 and MT1-MMP act inh RFP 3.
`O=C(C1c2ccccc2C(=O)N2CCc3ccccc3C12)N1CCN(Cc2ccccc2)CC1` (stereo unspecified) gave Rce1 inhib inactive, Yeast UUG start -6, PABP polyA inh 1, CSC inhib 4, HIV Env fusion -100, eIF4H FP inh 65, MT1-MMP act inh -1, eIF4H FP inh retest -9, PABP polyA inh retest -6 and MT1-MMP act inh RFP -1.
For Cc1ccc(/C=C2/NC(=O)N(Cc3ccccc3F)C2=O)o1 the results were Rce1 inhib inactive, PABP polyA inh 8, CSC inhib -15, HIV Env fusion -24, eIF4H FP inh 3, MT1-MMP act inh -4 and MT1-MMP act inh RFP 1.

Structural class: the compounds so far with a thiophene ring, fused or not.
For Cc1ccc2nc(-c3sc4nc(C)cc(C)c4c3N)[nH]c2c1 the results were Rce1 inhib inactive, Yeast UUG start -55, PABP polyA inh -6, CSC inhib -21, HIV Env fusion inactive, eIF4H FP inh -5, MT1-MMP act inh 3 and MT1-MMP act inh RFP -5.
CCc1cc(C(=O)c2ccccc2OC)c(N)s1 was read as Rce1 inhib inactive, Yeast UUG start -7, PABP polyA inh -2, CSC inhib 1, eIF4H FP inh -5, MT1-MMP act inh 7 and MT1-MMP act inh RFP -2.

This is a subset; rates above refer to the full screens.
